Source: PubChem BioAssay
gsp antag: qHTS for Antagonists of gsp, the Etiologic Mutation Responsible for Fibrous Dysplasia/McCune-Albright Syndrome: qHTS. gsp-mutant cells, cAMP HTRF, 30 min; control for the full effect not named in the record. Potency, µM (titrated, usually from 76.9 µM), inactives show at the top dose activity change, negative = inhibition, most hits filed as inhibitors. 340,000 compounds, 0.4% hits; active = falling curve of any shape with a large fitted effect; inconclusive = falling curve, mostly with a smaller effect; inactive = flat or rising curve; cell line not stated here;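 further: intracellular cAMP measured with PDE inhibitor Ro 20-1724 present during compound exposure; potency means the concentration at half of the fitted maximal effect; on the % scale 0 is the no-effect control and ±100 the full control effect; nearly all actives have a fitted effect of over 65% in size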
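Measurement of cellular cAMP by homogeneous time-resolved fluorescence following a 30 min compound exposure at 37C. The PDE inhibitor […] was present throughout; the assay buffer was DPBS with 0.05% BSA and 0.005% Tween 20.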
gsp agonist: qHTS for Agonist of gsp, the Etiologic Mutation Responsible for Fibrous Dysplasia/McCune-Albright Syndrome: qHTS; gsp mutant cells, cAMP HTRF, 30 min; control for the full effect not named in the record; AID 624287, 2012; Potency, µM (series often up to 76.9 µM), for inactives: at the top dose activation (cAMP increase), most hits filed as activators; 340,000 compounds, 0.13% hits; active = well fitted activation curve with a large enough effect; inconclusive = small, poorly fitted or top-dose-only effect, or another doubt; inactive = no such curve, though single readings can be large or run the other way; cell line not stated here;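 further: phosphodiesterase inhibitor Ro 20-1724 added with compounds to block cAMP breakdown; potency means the concentration at half of the fitted maximal effect; nearly all actives have a fitted effect of over 60% in size; about a fifth of the inactives were tested at one dose only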
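Cells in DMEM/10% FBS with G418 were pretreated with compounds in DMSO plus […] (300 uM stock) for 30 min at 37C. cAMP was measured by HTRF (cAMP-d2 plus anti-cAMP antibody-K) after 30 min at room temperature.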
TRPML1 inh: qHTS for Inhibitors of the Human Mucolipin Transient Receptor Potential 1 (TRPML1); Mucolipin-1 (Homo sapiens), Q9GZU1; TRPML1-inducible cells, Ca2+ dye fluorescence, FDSS; hits give low values; inhibition of EC80 agonist-evoked calcium signal; activity change, negative = inhibition, % (test concentration not listed); 390,000 compounds, 0.02% hits; AID 624415, 2012; in the data active means activity change below about -50%; inconclusive means about -30% to -50%; inactive means above about -30%;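 further: stimulus is agonist 54-4 at its EC80 concentration; on the % scale 0 is the no-effect control and ±100 the full control effect; compound concentration not given in the record; the text of the record puts the active cut at -80%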
Target sequence (Q9GZU1 whole entry, looked up): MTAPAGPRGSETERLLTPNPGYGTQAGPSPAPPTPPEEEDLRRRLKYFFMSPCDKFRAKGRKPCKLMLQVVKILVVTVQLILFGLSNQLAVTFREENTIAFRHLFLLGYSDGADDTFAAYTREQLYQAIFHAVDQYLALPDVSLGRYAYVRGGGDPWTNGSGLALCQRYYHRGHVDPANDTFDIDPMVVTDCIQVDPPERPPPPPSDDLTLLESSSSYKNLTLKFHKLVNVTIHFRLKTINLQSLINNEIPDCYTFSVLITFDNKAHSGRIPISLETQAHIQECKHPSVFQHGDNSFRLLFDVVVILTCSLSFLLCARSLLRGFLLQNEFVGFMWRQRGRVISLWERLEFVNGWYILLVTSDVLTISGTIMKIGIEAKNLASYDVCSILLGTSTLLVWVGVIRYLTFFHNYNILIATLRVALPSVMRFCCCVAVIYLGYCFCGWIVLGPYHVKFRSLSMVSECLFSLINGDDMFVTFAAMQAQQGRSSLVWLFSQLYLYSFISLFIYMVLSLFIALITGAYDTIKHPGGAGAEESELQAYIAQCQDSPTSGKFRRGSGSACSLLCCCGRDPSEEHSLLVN
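Tet-induced TRPML1-DL cells loaded with Ca8 no-wash calcium dye were read kinetically on FDSS. Compound addition was followed by EC80 agonist 54-4 (4 uM final); inhibition was read over 110 s.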
ClpP mod: qHTS Assay for Activators of ClpP. purified B. subtilis ClpP, FRET peptide cleavage, 20 min. Potency, µM (doses to about 57.5 µM), for inactives: top-dose activity change, negative = active. 340,000 compounds, 1.9% hits; active = well fitted falling curve with a large enough effect; inconclusive = small, poorly fitted or top-dose-only effect; inactive = no such curve, though single readings can be large or run the other way; further: potency means the concentration at half of the fitted maximal effect; the source files actives as falling curves though it sought activators and does not explain the sign; nearly all actives have a fitted effect of over 65% in size; many hits overshoot -100%
Target sequence (P80244 whole entry, looked up): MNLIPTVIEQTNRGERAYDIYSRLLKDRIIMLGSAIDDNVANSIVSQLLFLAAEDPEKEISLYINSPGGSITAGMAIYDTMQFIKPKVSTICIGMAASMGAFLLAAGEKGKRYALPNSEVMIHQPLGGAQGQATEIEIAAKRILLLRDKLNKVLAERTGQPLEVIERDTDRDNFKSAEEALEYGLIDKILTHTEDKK
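Buffer: 100 mM Tris/HCl pH8, 100 mM KCl, 0.05% low protease BSA, 2.5% glycerol, 0.01% Tween-20. ClpP 10 microg/mL final; 20 min RT; delta FRET normalized to ADEP and DMSO controls.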
Menin-MLL FL inh: qHTS Assay for Inhibitors Targeting the Menin-MLL Interaction in MLL Related Leukemias: Competition With Fluorescein Labeled MLL-derived Peptide; Fluorescence polarization, fluorescein-MLL peptide displacement from menin; FP activity change, % at 61.4 µM; 290,000 tested, under 10 active; inconclusive = falling polarisation curve, or a change in total fluorescence; inactive = total fluorescence flat and polarisation flat or rising; no compound was filed as active; the % refers to the polarisation; negative = inhibition;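 further: % of control where 0% means no effect; inhibitors lower the polarisation; unlabelled MLL peptide was the positive control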
TRPML1 agonist: qHTS for Agonists of the Human Mucolipin Transient Receptor Potential 1 (TRPML1). Mucolipin-1 (Homo sapiens), Q9GZU1. TRPML1-expressing cells, Ca2+ dye fluorescence, FDSS; host cell line not named in the record; reference of the full effect not given here. activation, % (concentration not given with the values). 410,000 compounds, 0.12% hits. AID 624414, 2012; in the data active = activation above about 50%; inconclusive = about 30% to 50%; inactive = below about 30%; further: 0% is about no effect; the text of the record puts the active cut at 80%
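Agonist activity was taken from a 110 s kinetic Ca2+ dye read on the FDSS after pinning compounds onto TRPML1-DL cells. The cells were seeded at 1,500/well with Tet inducer, incubated about 16 h, then dye-loaded at room temperature.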
Numbers without * were called inactive; ? = inconclusive; nt = no result given; & = joins results of further samples; [ ] = remark or other dose.

SMILES	gsp antag	gsp agonist	TRPML1 inh	ClpP mod	Menin-MLL FL inh	TRPML1 agonist
O=C(NC1CCCC1)C1CCCN1S(=O)(=O)c1cccc2cccnc12 (configuration not stated)	0.7%	-29.8%	2.6	-2.4%	0.6	-0.4
O=C(CSc1ccc2nnc(-c3cccnc3)n2n1)NCc1ccco1	3.6%	?	-2.9	-5.2%	2.4	-1.0
COc1ccc(CC(=O)NNc2ncnc3c2cnn3C)cc1OC	1.1%	20.3%	-1.9	-1.1%	-3.5	1.1
CC(C)CCNC(=O)[C@H](CSCc1ccccc1)N1Cc2ccccc2C1=O	-6.1%	8.9%	6.9	1.1%	-0.3	2.3
CCC(=Nc1ccccc1O)C1=C(O)CC(c2ccccc2)CC1=O (configuration not stated)	3.0%	22.4%	11.3	0.4%	7.5	1.4
COc1ccc(OC)c(NC(=O)Cn2c(C)nc3ccccc3c2=O)c1	-10.7%	4.0%[15.4 µM]	42.3	nt	2.4	1.3
Cc1ccccc1CNC(=O)C(=O)NCCC1CCCCN1S(=O)(=O)c1cccs1 (configuration not stated)	1.3%	38.1%	90.7	-23.2%	nt	1.4
CCn1cc(CNC(=O)c2c(-c3c(Cl)cccc3Cl)noc2C)c(C)n1	6.4%	8.6%[15.4 µM]	-11.8	-2.1%	-0.7	0.7
C#CCOC(=O)c1ccccc1C(=O)O	9.6%	-31.4%[inhibitor]	-7.3	-0.5%	0.1	1.6
CC(Oc1ccc(-c2ccccc2)cc1)C(=O)N1CCOCC1 (configuration not stated)	4.7%	-21.7%	5.9	25.1µM*	-0.1	0.6
CC1C(c2ccccc2)OCCN1C=NC#N (configuration not stated)	nt	33.2%	8.5	-1.4%	nt	0.1
Cc1ccc2c(c1)-c1ncc(C(=O)c3ccccc3O)cc1CO2	nt	nt	67.7	1.2%	nt	1.9
CCCCn1c(N)c(N(CC(C)C)C(=O)CCNC(=O)c2ccc([N+](=O)[O-])cc2)c(=O)[nH]c1=O	9.5%	?	-9.7	-3.1%	nt	-0.4
ClCCn1cnc2c(SCc3ccccc3Cl)ncnc21	12.9%	-18.4%	-2.4	nt	nt	1.8
C[C@H]1CN=C(Nc2ccccc2)N1CC1CCC1	6.6%	2.7%	9.9	0.9%	-1.9	0.0
Cc1ccc(C(=O)O)cc1NC(=O)CSc1ncnc2sc3c(c12)CCC3	-13.2%	15.5%[15.4 µM]	17.9	nt	1.2	0.9
COc1cc(/C=N/NC(=O)c2ccncc2)ccc1OC(=O)c1cccc(Br)c1	-25.5%	-0.9%	-6.6	nt	nt	1.0
O=C(CSc1ccc(S(=O)(=O)N2CCCC2)cn1)Nc1ccc([N+](=O)[O-])cc1C(F)(F)F	-7.4%	?	-9.2	-17.4%	nt	-0.4
COC(=O)c1sc2cccc(F)c2c1S(=O)(=O)NC(C)c1ccccc1 (configuration not stated)	nt	nt	16.8	-1.5%	nt	1.6
O=C(COC(=O)CNC(=O)c1ccccc1)Nc1ccc2c(c1)OCO2	-7.9%	-0.1%	13.0	nt	4.2	0.0
Cc1c(C(=O)NCCSCc2c(F)cccc2Cl)cnn1-c1ccc(Cl)cc1	-17.0%	8.4%[15.4 µM]	-13.2	nt	-2.3	2.8
CN(C(=O)COC(=O)c1cc([N+](=O)[O-])ccc1N1CCCC1)C1CCS(=O)(=O)C1 (configuration not stated)	-56.1%	2.1%[15.4 µM]	-4.1	nt	-1.4	-0.7
COc1ccccc1CNC(=O)c1ccc(N(C)S(=O)(=O)c2ccc(C)cc2)cc1	?	-7.3%[15.4 µM]	27.7	1.1%	nt	1.3
CC(C)(C)NC(=O)CSc1nc(-c2ccccc2)c(-c2ccccc2)[nH]1	-7.9%	9.8%	1.6	?	1.6	0.4
Nc1cc(C(=O)OCC(=O)N2CCCC2=O)ccc1Cl	13.1%	-3.7%[15.4 µM]	-18.4	nt	nt	1.1
O=C(N/N=C/c1cccs1)c1cc(-c2ccc3ccccc3c2)n[nH]1	?	-25.5%	-8.1	28.3%	0.5	1.1
O=C(COc1ccc(S(=O)(=O)N2CCCC2)cc1[N+](=O)[O-])N1CCCC1	9.0%	5.3%	-10.6	-1.7%	nt	0.4
O=C(C1CC1)N1CCc2cc(S(=O)(=O)N3CCOCC3)ccc21	-14.4%	-28.5%	-2.6	-1.8%	0.1	-0.6
O=C1c2ccccc2C(=O)N1CCCCSc1nc2ccccc2o1	-3.7%	-23.6%	-8.0	-3.0%	1.7	0.0
CCCSc1nc(O)c(C(c2ccc(OC)c(O)c2)c2c(O)nc(SCCC)n(C)c2=O)c(=O)n1C	-5.2%	21.7%[15.4 µM]	3.5	-0.3%	3.7	8.3
CC1(C)CC(=O)c2cc(NC(=O)c3ccc(F)cc3)c(=O)oc2C1	-35.4%	31.4%[15.4 µM]	-15.4	60.6%	-0.1	-0.8
CC1CN(c2oc(COc3ccc(Cl)cc3Cl)nc2C#N)CC(C)O1 (configuration not stated)	-8.2%	-6.3%	-5.8	-0.1%	2.5	-0.5
COc1ccc(/C=C/C(=O)NCCCN2CCOCC2)cc1	4.1%	0.7%[15.4 µM]	9.2	nt	1.5	0.9
Cc1sc2ncn(CC(=O)N3CCN(c4cccc(Cl)c4)CC3)c(=O)c2c1S(=O)(=O)N1CCC(C)CC1	nt	nt	-9.5	-6.6%	nt	0.2
Cc1ccc(N2CC(C(=O)NCCS(=O)(=O)N3CCN(c4ccccc4F)CC3)CC2=O)cc1 (configuration not stated)	11.4%	13.4%	1.5&-5.7	-1.6%&2.3%	-4.2	0.2&1.5
CC(=O)c1c(C)[nH]c(C(=O)OCC(=O)Nc2ccc(Cl)c(S(=O)(=O)N(C)C)c2)c1C	39.8µM*	37.1%	-5.5	3.4%	3.3	-0.7
OC1CCCN(Cc2c3ccccc3cc3ccccc23)C1 (configuration not stated)	?	10.8%	-7.9	20µM*	-1.0	0.3
COc1ccc(NC(=O)Nc2ccc(O)c3ccccc23)cc1	9.8%	-0.2%	2.2	-27.9%	nt	1.2
CC12CCC(=O)N1C(C(=O)OCC(=O)Nc1ccc(C(F)(F)F)cc1)CS2 (configuration not stated)	14.1%	-26.0%	8.8	-0.5%	nt	-0.5
COc1ccc(OC)c(S(=O)(=O)Nc2cc(OC)c(Cl)cc2OC)c1	-12.9%	-22.7%	-11.5	-3.3%	2.3	2.2
COC(=O)CC1C(=O)NCCN1C(=O)CSc1nnnn1-c1ccc(Cl)cc1 (configuration not stated)	-0.8%	-53.3%	28.8	-2.1%	-1.8	0.7
CCOC(=O)NC(=O)c1cn(Nc2ncc(C(F)(F)F)cc2Cl)c(=O)[nH]c1=O	?	-0.6%	5.2	nt	-2.0	0.1
N=C(SC1CC(=O)N(c2ccc(F)cc2)C1=O)N1N=C(c2ccccc2)CC1c1ccccc1 (configuration not stated)	4.7%	-8.1%[15.4 µM]	-7.1	nt	-0.7	1.3
O=C(Cn1c(=O)oc2ccc(Cl)cc21)Nc1ccon1	3.8%	9.2%	-7.0	1.8%	3.3	-0.3
CCOc1cc(/C=C2\COc3ccccc3C2=O)ccc1OCC(=O)N(C)C	2.6%	7.1%	19.5	nt	-2.3	2.6
CCOc1ccc(-n2c(SCc3nc(-c4ccc(C)cc4)no3)nnc2-c2ccncc2)cc1	-13.1%	-9.8%	6.8	-2.1%	1.2	2.1
COc1cc2cc(CCCOC(=O)c3ccc(C#N)cc3)oc(=O)c2cc1OC	1.3%	nt	1.2	-2.1%	nt	-0.7
Cc1cc(NC(=O)C2CCCN(S(=O)(=O)c3c(C)noc3C)C2)n[nH]1 (configuration not stated)	5.4%	-21.6%	-13.8	1.3%	2.9	0.2
O=C(Cn1cc(S(=O)(=O)N2CCCC2)c(S(=O)(=O)N2CCCC2)c1)Nc1cccc(F)c1	nt	nt	30.5	-1.0%	nt	-0.3
Cc1cc2c3c(c1)C1(C(=O)N3C(C)(C)CC2C)C(C#N)=C(N)Oc2n[nH]c(C)c21 (configuration not stated)	-8.7%	-11.0%	6.9	0.6%	-0.9	-0.3
COc1ccc(C2N(c3ccccn3)C(=O)C3CCCN32)c(OC)c1 (configuration not stated)	16.8%	-30.7%[inhibitor]	22.4	-3.3%	2.9	1.2
O=C1C(=O)N(CCCn2ccnc2)C(c2cccnc2)/C1=C(/O)c1ccc(F)cc1 (configuration not stated)	5.1%	?	-1.8	-1.6%	-0.1	-0.7
CCOC(=O)c1[nH]c2cc(OC)c(OC)cc2c1N	?	-20.7%	7.1	?	0.2	0.1
CC(=O)Nc1cc2c(cc1C(=O)C(C)C)OCCO2	-6.6%	?	3.2	-15.9%	-5.7	0.7
COc1cccc(-n2c(Cc3cc(=O)[nH]c(=O)[nH]3)nnc2SCC(=O)NC2CCCC2)c1	12.2%	-59.4%[inhibitor]	-7.1	1.3%	-2.2	0.3
CCO[C@H]1OC(C(N)=O)=C[C@@H](C)[C@@H]1CCCO	13.0%	nt	-0.8	0.8%	2.1	-0.4
COc1ccccc1N1CCN(C(=O)CN2C(=O)C3CCCCC3C2=O)CC1 (configuration not stated)	1.7%	0.9%	-1.2	1.6%	-9.0	-0.4
COc1ccc(CNCc2cc(Cl)ccc2O)cc1	12.0%	nt	29.5	-3.1%	nt	0.7
O=c1[nH]c2cc3c(cc2cc1CN(Cc1ccco1)C(=S)NCC1CCCO1)OCCO3 (configuration not stated)	-2.3%	-39.0%	14.0	3.7%	-3.4	2.0
CCOC(=O)N1CCN(S(=O)(=O)c2ccc(OC)c3ccccc23)CC1	-1.6%	7.8%	9.3	-0.6%	2.3	0.9

(listing goes on)
SMILES	gsp antag	gsp agonist	TRPML1 inh	ClpP mod	Menin-MLL FL inh	TRPML1 agonist
O=C(CCc1ccccc1)NNC(=O)c1ccccc1C(=O)O	13.4%	-0.2%[15.4 µM]	39.1	4.6%	6.7	0.0
CC12CCC(=O)N1C(C(=O)Oc1cccc(F)c1)CS2 (configuration not stated)	nt	-49.2%[inhibitor]	3.6	-0.9%	nt	-0.5
CCOc1ccc(C(C)=O)cc1COC(=O)CN1C(=O)NC2(CCCC2)C1=O	6.7%	1.7%	10.4	0.2%	nt	0.3
CS(=O)(=O)N(CC(=O)NC1CC1)C1CCCCC1	19.9%	-29.3%	1.5	-0.8%	5.3	0.3

Ordered by the number under gsp antag (falling): 3 of the compounds above.
| smiles | gsp antag |
| --- | --- |
| CS(=O)(=O)N(CC(=O)NC1CC1)C1CCCCC1 | 19.9% |
| COc1ccc(OC)c(S(=O)(=O)Nc2cc(OC)c(Cl)cc2OC)c1 | -12.9% |
| O=C(C1CC1)N1CCc2cc(S(=O)(=O)N3CCOCC3)ccc21 | -14.4% |
